Bioassay records as filed in PubChem.
TRPML1 inh: human mucolipin-1 channel inhibition. Q9GZU1. activity change, negative = inhibition, % (test concentration not listed). TRPML1-inducible cells, Ca2+ dye fluorescence, FDSS; hits give low values; inhibition of EC80 agonist-evoked calcium signal. 390,000 compounds, 0.02% hits; in the data active means activity change below about -50%; inconclusive means about -30% to -50%; inactive means above about -30%;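 further: stimulus is agonist 54-4 at its EC80 concentration; on the % scale 0 is the no-effect control and ±100 the full control effect; compound concentration not given in the record; the text of the record puts the active cut at -80%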
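Tet-induced TRPML1-DL cells loaded with Ca8 no-wash calcium dye were read kinetically on FDSS. Compound addition was followed by EC80 agonist 54-4 (4 uM final); inhibition was read over 110 s.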
ClpP mod: qHTS Assay for Activators of ClpP. purified B. subtilis ClpP, FRET peptide cleavage, 20 min. Potency, µM (top dose mostly 57.5 µM), inactives show top-dose activity change, negative = active. 340,000 compounds, 1.9% hits; active = well fitted falling curve with a large enough effect; inconclusive = small, poorly fitted or top-dose-only effect; inactive = no such curve, though single readings can be large or run the other way; further: potency means the concentration at half of the fitted maximal effect; the source files actives as falling curves though it sought activators and does not explain the sign; nearly all actives have a fitted effect of over 65% in size; many hits overshoot -100%
Target sequence (P80244 whole entry, looked up): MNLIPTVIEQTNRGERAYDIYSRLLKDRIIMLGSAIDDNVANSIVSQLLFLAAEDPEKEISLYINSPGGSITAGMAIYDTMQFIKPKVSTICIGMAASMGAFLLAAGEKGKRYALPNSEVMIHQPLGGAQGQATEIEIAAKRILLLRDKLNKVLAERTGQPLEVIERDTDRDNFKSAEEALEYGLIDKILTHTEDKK
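Buffer: 100 mM Tris/HCl pH8, 100 mM KCl, 0.05% low protease BSA, 2.5% glycerol, 0.01% Tween-20. ClpP 10 microg/mL final; 20 min RT; delta FRET normalized to ADEP and DMSO controls.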
TRPML1 agonist: activates the human TRPML1 channel; Q9GZU1; TRPML1-expressing cells, Ca2+ dye fluorescence, FDSS; host cell line not named in the record; reference of the full effect not given here; activation, % (concentration not given with the values); 410,000 compounds, 0.12% hits; in the data active = activation above about 50%; inconclusive = about 30% to 50%; inactive = below about 30%; further: 0% is about no effect; the text of the record puts the active cut at 80%
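Calcium fluorescence on an FDSS kinetic reader gave the read-out. Tet-induced TRPML1-DL cells were plated overnight, dye-loaded (Ca8 with quencher, 45-90 min, room temperature, dark), then read 110 s after compound addition, and again 110 s after 4uM final 54-4 (EC80).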
Sfp PPTase inh: blocks B. subtilis Sfp PPTase activity; Biochemical Sfp PPTase activity, qHTS; Potency, µM, for inactives: max response, negative = inhibition, hits mostly inhibitors; 310,000 compounds, 3.5% hits; AID 1490; active means well fitted inhibition curve with a large enough effect; inconclusive means small, poorly fitted or top-dose-only effect, or another doubt; inactive means no such curve, though single readings can be large or run the other way;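 further: the enzyme is Sfp with the accession as filed and its product quenches rhodamine fluorescence; potency means the concentration at half of the fitted maximal effect; 0% = enzyme reaction without inhibitor and -100% = no enzyme wells; top concentration of the series not given in the record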
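After 15 min at room temperature with compound, 15 nM Sfp received 5 uM rhodamine-CoA plus 12.5 uM BHQ-2-ybbR (50 mM Hepes pH 7.6, 10 mM MgCl2). Rate came from the fluorescence difference over 30 min, ex 525/em 598 nm.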
PINK1 modulator: modulators of PINK1 expression; PINK1 immunofluorescence, high-content cytometry, 24 h; Potency, µM (series often up to 76.6 µM), inactives show top-dose activation (PINK1 increase), hits mostly activators; 410,000 compounds, 0.2% hits; AID 624263; active = well fitted activation curve with a large enough effect; inconclusive = small, poorly fitted or top-dose-only effect; inactive = flat fitted curve, though single readings scatter; cell line not stated here;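 further: potency means the concentration at half of the fitted maximal effect; % of control where 0% means no effect; nearly all actives have a fitted effect of over 65% in size; a mitochondrial uncoupler was the plate control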
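Cells are seeded, rested 12 hours, then given compound at five concentrations or DMSO for 24 hours. After fixation, blocking and antibody staining, PINK1 amount and mitochondrial localization are scored; CCCP serves as control.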
Menin MLL FP FL: inhibitors of human menin-MLL interaction, wild-type MLL peptide | Fluorescence polarization, fluorescein-MLL peptide displacement from menin | 290,000 tested, under 10 active | FP activity change, % at 61.4 µM; inconclusive = falling polarisation curve, or a change in total fluorescence; inactive = total fluorescence flat and polarisation flat or rising; no compound was filed as active; the % refers to the polarisation; negative = inhibition;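 further: % of control where 0% means no effect; inhibitors lower the polarisation; unlabelled MLL peptide was the positive control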
TRPV1 PAM: human TRPV1 potentiation; Q8NER1; TRPV1-expressing cells, Fluo-8 calcium influx, capsaicin EC20 potentiation; host cell line not named in the record; control for the full effect not named in the record; potentiation, % at 8.33 µM; 320,000 compounds, 0.02% hits; active means potentiation above 80%; inconclusive means 30% to 80%; inactive means below 30%; further: 0% is about no effect
Target sequence (Q8NER1 whole entry, looked up): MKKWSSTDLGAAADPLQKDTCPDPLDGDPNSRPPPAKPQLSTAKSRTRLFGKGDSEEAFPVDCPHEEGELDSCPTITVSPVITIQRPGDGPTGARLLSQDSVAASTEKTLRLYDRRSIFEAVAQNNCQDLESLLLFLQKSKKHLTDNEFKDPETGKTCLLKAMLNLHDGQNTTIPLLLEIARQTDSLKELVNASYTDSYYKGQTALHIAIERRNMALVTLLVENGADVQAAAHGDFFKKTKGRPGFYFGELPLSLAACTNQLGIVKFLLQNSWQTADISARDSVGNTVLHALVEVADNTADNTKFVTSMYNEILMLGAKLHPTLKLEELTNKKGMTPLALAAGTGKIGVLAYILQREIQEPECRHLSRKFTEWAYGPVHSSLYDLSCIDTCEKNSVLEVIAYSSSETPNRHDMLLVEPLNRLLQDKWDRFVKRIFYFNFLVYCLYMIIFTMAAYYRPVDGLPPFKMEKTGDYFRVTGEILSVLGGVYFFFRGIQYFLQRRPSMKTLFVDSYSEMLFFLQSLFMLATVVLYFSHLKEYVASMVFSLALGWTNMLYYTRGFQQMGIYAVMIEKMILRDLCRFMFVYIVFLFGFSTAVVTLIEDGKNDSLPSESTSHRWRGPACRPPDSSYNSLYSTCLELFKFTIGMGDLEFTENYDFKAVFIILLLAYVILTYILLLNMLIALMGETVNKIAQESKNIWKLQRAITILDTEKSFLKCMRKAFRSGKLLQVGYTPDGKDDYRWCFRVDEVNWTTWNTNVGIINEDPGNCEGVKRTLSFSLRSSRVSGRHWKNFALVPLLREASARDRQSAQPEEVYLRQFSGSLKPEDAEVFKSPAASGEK
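TRPV1-expressing cells were cultured overnight at 35.5C and loaded with Fluo-8 calcium dye for 40 to 90 min at room temperature. After a 10 s baseline, compound was added and calcium influx was read kinetically for 3 min (ex 480/em 520 nm).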
Active calls of the source: *; ? = inconclusive; · = not tested or not shown; [ ] = another dose, or the depositor's remark.

SMILES,TRPML1 inh,ClpP mod,TRPML1 agonist,Sfp PPTase inh,PINK1 modulator,Menin MLL FP FL,TRPV1 PAM
Nc1cc(Cl)ccc1C(=O)OCC(=O)NC1CCS(=O)(=O)C1 (configuration not stated),28.4,?,0.8,4.1%,1.4%,-0.6,3.9
Cc1ccc(SCc2c(C(=O)N/N=C/c3cccnc3)nnn2-c2nonc2N)cc1,30.0,0.6%,0.2,4.9%,-1.6%,-0.1,-5.4
CCOc1cc(N2CCOCC2)c(OCC)cc1NC(=O)c1ccc(S(=O)(=O)N2CC(C)OC(C)C2)cc1 (configuration not stated),-4.4,0.9%,-0.9,·,0.9%,·,·
CN(C)c1ccnc(Oc2ccc(C(C)(C)C)cc2)c1C#N,1.5,0.5%,-0.8,-20.7%,0.6%[38.3 µM],0.1,-9.3
c1ccc2c(-c3nc4ncccc4o3)cccc2c1,3.9,-69.4%,-0.4,16.2%,-1.3%,0.1,-2.0
CCN(C(=O)COC(=O)c1cnccn1)c1cccc2ccccc12,-4.1,·,1.6,·,-1.0%,·,·
CCn1c(SCc2c(Cl)cccc2Cl)nc2nc3c(cc2c1=O)CCCC3,8.3,-5.7%,1.3,·,4.6%,·,·
Cc1ccccc1OCc1nnc(SCC(=O)O)n1-c1ccccc1,·,-2.0%,·,12.8%,1.8%,-2.4,26.7
COc1ccc(-c2nc(SCC(=O)c3ccc(Br)cc3)n[nH]2)cc1,-4.2,0.5%,-0.2,·,12.4%,·,·
COc1ccc2nc3ccccc3nc2c1NC(=O)c1ccc(Cl)cc1,1.6,1.4%,0.1,7.5%,?,?,4.5
Cc1ccc(NC(=O)Nc2cc(-c3ccccc3)nn2C)cc1Cl,1.5,-1.4%,0.0,5.2%,11.2%,3.1,-0.5
Cc1cc(C(=O)CSc2n[nH]c(N)n2)c(C)n1-c1cc(F)ccc1F,11.9,0.8%,-1.3,-16.6%,0.5%,0.9,-15.1
CCOC(=O)C1=C(Nc2ccc(Br)cc2)CC(C)(O)C(C(=O)OCC)C1c1ccccc1 (configuration not stated),14.6,13.3%,-0.6,15.8%,7.2%,-0.6,-3.3
CCOc1nc(NCc2ccco2)nc(Nc2ccccc2F)n1,37.5,-1.4%,0.8,18.9%,3.4%,2.8,-15.6
CN(C)c1ccc(N=Nc2ccc(C(=O)O)cc2)cc1,-2.5,·,0.0,79.4µM*,-1.5%,·,5.0
N#Cc1cc2c(N)c(C(=O)Nc3ccccc3)sc2nc1N,·,·,·,-29.2%,·,-2.0,-16.1
COCCn1c(SCC(=O)NC2CC2)nnc1-c1ccc(Cl)cc1,-3.4,0.1%,-0.8,·,1.2%,·,0.0
COc1ccc(C)cc1NC(=O)CNC(C)C(=O)Nc1cc(Cl)ccc1Cl (configuration not stated),33.7,0.8%,1.1,9.7%,1.5%,-0.7,-5.3
O=C(O/N=C\c1ccc(N2CCOCC2)c([N+](=O)[O-])c1)c1ccc(F)cc1,-4.7,0.9%,1.2,6.1%,-1.4%,1.7,-5.5
O=C(Nc1cccc(O)c1)c1ccc(C(=O)c2ccccc2)o1,5.4,·,0.7,1.2%,-1.3%,3.6,-6.0

Continued:
SMILES,TRPML1 inh,ClpP mod,TRPML1 agonist,Sfp PPTase inh,PINK1 modulator,Menin MLL FP FL,TRPV1 PAM
CCN(CC)c1ccc(NC(=O)C2CCN(S(=O)(=O)c3ccc4c(c3)oc(=O)n4C)CC2)c(C)c1,4.5,-13.2%,-0.3,·,1.0%,·,·
C[C@H](NC(=O)c1ccccc1)C(=O)OCC(=O)Nc1ccc(Cl)cn1,2.8,0.1%,-0.9,·,3.0%,·,·
COc1ccc(CN(CCN)C2CC(C)N(C)CC2C)cc1 (configuration not stated),-0.4,1.2%,0.1,0.5%,-0.1%,-6.0,-0.6
Cc1[nH]c2ccccc2c1SCC(=O)N1CCOCC1,14.3,-0.3%,0.2,-17.6%,1.6%,1.1,-0.9
O=C(Nc1ccncc1)Nc1ccc(Cl)cc1Cl,-16.9,0.5%,0.8,-8.3%,10.0%,0.5,-6.6
Cc1ccc(NC(=O)c2ccc(-n3cccn3)c([N+](=O)[O-])c2)cc1C,1.1,-0.1%,0.3,2.0%,6.8%,4.8,1.7
NC(=O)NN=C1C2CCCC1C(c1ccccc1)NC2c1ccccc1 (configuration not stated),2.0,0.6%,0.9,2.1%,1.9%,1.1,-2.6
C1CC(CN2CCOCC2)CN(Cc2nc(CC3CC3)no2)C1 (configuration not stated),20.3,·,0.2,17.0%,2.7%,-5.3,-2.7
COc1ccc(NC(=O)c2cc3c(=O)[nH]c4ccccc4c3n2C)cc1Cl,-1.4,?,0.1,·,-4.6%,·,·
CCOc1ccc(NC(=O)c2sc3nc(C)nc(N4CCOCC4)c3c2C)cc1,-3.2,·,2.2,-22.0%,1.3%,-1.7,1.5
O=C(Nc1ncccc1O)c1ccc(C(=O)c2ccccc2)cc1,-14.5,0.0%,1.9,·,4.0%,·,6.7
CCOc1cc(N2CCOCC2)c(OCC)cc1NC(=O)CC12CC3CC(CC(C3)C1)C2,17.8,3.1%,0.1,-3.4%,0.6%,0.1,3.9
O=C(Nc1cnccn1)Nc1cccc(Cl)c1Cl,4.9,·,0.1,-15.1%,-1.4%,3.3,9.6
Cc1cc(C)c(C#N)c(SCC(O)CS(=O)(=O)Cc2ccccc2)n1 (configuration not stated),3.9,-5.1%,-0.2,-4.2%,·,-2.9,-11.5
CCc1nc(NCC2CCCO2)c2oc3ccccc3c2n1 (configuration not stated),-7.8,?,0.4,5.1%,-1.8%,-2.9,-10.1
COc1ccccc1C(=O)NCCCNC(=O)c1ccccn1,-15.5,·,0.5,9.3%,-0.6%,0.4,3.7
CCn1c(=O)cc(OCC(=O)NCc2ccco2)c2ccccc21,27.5,-5.3%,-0.6,-1.4%,6.2%,-0.3,7.2
O=C(/C=C/c1ccccc1)Oc1coc(CSc2ncccn2)cc1=O,-1.6,·,-0.8,-1.8%,3.0%,-5.6,-2.3
CC(=O)c1ccc(NC(=O)C(C)OC(=O)c2ccc(Br)o2)cc1 (configuration not stated),-17.4,0.8%,0.6,·,0.1%,·,-25.2
CNC(=O)CSc1nnc(-c2cc(C)cc(C)c2)o1,21.2,-0.8%,0.3,19.2%,4.0%[38.3 µM],8.2,-22.3

(next part)
SMILES,TRPML1 inh,ClpP mod,TRPML1 agonist,Sfp PPTase inh,PINK1 modulator,Menin MLL FP FL,TRPV1 PAM
COc1ccc(OC)c(C(c2nnnn2Cc2ccccc2)N2CCN(C3CCCCC3)CC2)c1 (configuration not stated),-7.6,0.8%,-0.2,9.2%,-2.0%,-1.1,-9.8
CCCCC/C=C\C[C@H](O)/C=C/c1cccc(C[C@H](O)CCCCO)n1,14.4,-4.2%,-0.8,?,3.1%,-4.0,4.5
O=C(Nc1ccc(S(=O)(=O)Nc2nccs2)cc1)c1cccc(N2C(=O)c3ccccc3C2=O)c1,26.0,0.6%,-0.9,-27.0%,2.7%,?,-11.9
N#Cc1c2nc3ccccc3nc2n2cc(NC(=O)c3ccc(F)cc3)ccc12,12.8,·,4.6,?,3.3%,1.8,10.9
c1ccc(-c2ccccc2OCCOCCN2CCNCC2)cc1,-10.1,·,0.2,20µM*,0.9%,0.1,8.7
O=C(NCc1ccccc1)C1=C[C@H](c2ccc3c(c2)OCO3)C[C@H](OCc2ccc(CO)cc2)O1,15.2,-7.3%,1.1,·,2.5%,·,·
CCCN1CNc2c(c(=O)[nH]c(=S)n2CCc2ccccc2Cl)C1,·,-0.4%,-0.5,·,-0.3%,·,·
CC(C)(C)c1nnc2cccc(Cl)n12,4.1,-0.4%,-0.4,10.3%,-2.5%,-6.3,4.8
COc1ccccc1/C=C/C=N/NC(=O)c1cccs1,6.8,·,0.2,-13.4%,1.9%,-0.6,16.7
Cn1nc([N+](=O)[O-])nc1Oc1ccccc1N,14.5,-3.2%,0.0,-25.9%,·,-0.1,7.9
CS(=O)(=O)Oc1ccccc1/C=C1/N=C(c2ccc(F)cc2)OC1=O,-8.5,-1.3%,0.4,3.4%,0.7%,8.7,2.0
CCOc1cc(CNS(=O)(=O)c2ccc3c(c2)C(C)(C)C(=O)N3)cc(OCC)c1OCC,28.7,1.0%,-0.1,·,-0.1%,·,·
O=C(c1ccco1)N1CCN(c2cc(N3CCOCC3)c(F)cc2[N+](=O)[O-])CC1,-9.1,·,0.3,-1.9%,-0.2%,-1.7,8.3
O=C(NC1CCCCC1)C1CC(=O)N(CCc2ccc(F)cc2)C1 (configuration not stated),-4.1,·,0.1,14.8%,-0.1%,2.0,-0.4
COc1ccc(NC(=O)CSc2nc3c(c(-c4cccs4)c2C#N)CN(C)CC3)cc1OC,16.1,0.0%,2.7,-19.0%,?,?,-5.7
O=S(=O)(Nc1nc2ccccc2nc1-[n+]1ccccc1)c1ccc(Cl)cc1,3.2,-0.3%,1.8,-0.8%,0.7%,10.0,1.7
O=[N+]([O-])c1c(Nc2ccccc2O)cc(N2CCOCC2)c2nonc12,5.3,0.8%,0.9,6.7%,-0.1%,1.9,-8.2
CC(=O)c1ccc(N2C(=NC(=O)CCc3ccccc3)SC3CS(=O)(=O)CC32)cc1 (configuration not stated),-7.9,-0.5%,-0.9,18.2%,-1.0%,·,-9.2
CC(C)CC(=O)c1c[nH]c(C(=O)NCc2cccs2)c1,52.7,-0.5%,-0.9,12.2%,0.5%,4.7,10.5
Cc1ccc(CNC(=O)c2cc3cc(Br)ccc3oc2=N)cc1,48.2,1.3%,-0.2,14.8%,-1.5%,·,8.2
